High-throughput results deposited in PubChem by PCMD.
Biofilm kill mix: mixtures killing C. albicans biofilm. C. albicans biofilm persisters + clotrimazole, fluorescence viability; primary screen in compound mixtures of four per well. hit rate 0.02% among 120,000. inhibition, % at 7.6 µM;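 active = inhibition above 30.3% in the primary screen of four-compound pools, then above 30% when the compound was retested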;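 note: compounds exposed to preformed 24 h biofilms for 48 h; the number belongs to the whole pool; some results filed as inactive read as strong as hits; inactives centre near 12; 0% = biofilm with clotrimazole alone and 100% = kill control; retested singly at about 60 µM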
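System: C. albicans CAF4-2 wild-type biofilms; Medium: RPMI/MOPS medium, pH 7.0; Reagent: Clotrimazole, 50 µg/mL; Times: biofilm formation 24 h, compound exposure 48 h, 37 °C; Detection: 2-h Alamar Blue fluorescence, 535/590 nm excitation/emission; Evaluation: percent inhibition of biofilm viability.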
Starred values were filed as active, the others as inactive. Only part of the results is shown (hit frequency here may not be typical).

SMILES	Biofilm kill mix
CCN1CCN(C(c2cccc(OC)c2OC)c2nnnn2Cc2ccco2)CC1 (configuration not stated)	19
O=C(O)CCCc1c(-[n+]2ccccc2)[nH]c2ccccc12	10
C=CCNC(=O)COC(=O)c1ccc(Cl)c(S(=O)(=O)N(Cc2ccccc2)c2ccccc2)c1	8
CCC(C)(C)NC(=O)C(c1ccc(F)cc1)N(Cc1cccs1)C(=O)c1cnccn1 (configuration not stated)	19
CC(C)(C)C(=O)NCCc1nc2ccccc2n1CC(=O)c1ccc(Cl)cc1	6
CCN(CC)S(=O)(=O)c1ccc(O)c(C(=O)OCC(=O)N2c3ccccc3CC2C)c1 (configuration not stated)	11
Cc1nn(Cc2ccccc2)c2c1C(c1ccncc1)C(C#N)=C(N)O2 (configuration not stated)	11
CN(C(=O)Nc1cnc2ccccc2c1)c1ccccc1	-2
CCC(Cc1ccccc1)NC(=O)C1=C(C)C(=O)OC12CCC(C)CC2 (configuration not stated)	19
CCNc1nc(NCC)nc(OCCOC(=O)Nc2ccccc2)n1	13
Cc1nn(Cc2ccc(C(=O)NN)cc2)c(C)c1Cl	12
Cc1ccc(N(C(=O)c2csnn2)C(C(=O)NC(C)(C)C)c2cccnc2)cc1 (configuration not stated)	29
O=c1[nH][nH]c2cc(=O)n(-c3cccc(C(F)(F)F)c3)nc12	19
CCOC(=O)CN(C(=O)COc1nc(-c2ccccc2)cc(C)c1C#N)c1ccc(C)cc1	15
Cc1nc(C)c(-c2csc(N)n2)s1	15

Brought forward from above: 6 entries, then new ones.
SMILES	Biofilm kill mix
CCNc1nc(NCC)nc(OCCOC(=O)Nc2ccccc2)n1	13
Cc1nn(Cc2ccc(C(=O)NN)cc2)c(C)c1Cl	12
Cc1ccc(N(C(=O)c2csnn2)C(C(=O)NC(C)(C)C)c2cccnc2)cc1 (configuration not stated)	29
O=c1[nH][nH]c2cc(=O)n(-c3cccc(C(F)(F)F)c3)nc12	19
CCOC(=O)CN(C(=O)COc1nc(-c2ccccc2)cc(C)c1C#N)c1ccc(C)cc1	15
Cc1nc(C)c(-c2csc(N)n2)s1	15
O=C(Nc1ccccc1)c1cccc(=O)o1	21
COc1ccc(NC(=O)Nc2sc(NS(=O)(=O)c3ccccc3)nc2C)cc1	6
CN(C)S(=O)(=O)c1ccc(Cl)c(NC(=O)COC(=O)CN2C(=O)NC(C)(C)C2=O)c1	14
c1ccc(CCn2nnc3ccccc32)cc1	-4
c1ccc(C2CN3CCSC3=N2)cc1 (configuration not stated)	3
Cc1cc(C(=O)COC(=O)c2ccc(O)cc2)c(C)n1Cc1ccco1	13
NS(=O)(=O)c1ccc(CNC(=O)c2ccc(Cl)cc2[N+](=O)[O-])cc1	16
COc1ccc(NC(=S)NNC(=O)c2cccnc2)cc1OC	12
COc1ccc(Cn2c(C)nc([N+](=O)[O-])c2SCC(=O)O)cc1[N+](=O)[O-]	7
COc1ccc(NC(C)=O)cc1S(=O)(=O)Nc1ccc2c(c1)OCCO2	10
CC(C)(C)C(=O)OC/C(N)=N/OC(=O)c1ccc(Cl)c(Cl)c1	14
COc1ccc(NC(=O)Nc2nnc(-c3ccccc3F)s2)cc1	13
Fc1ccc(N2CCN(C3=Nc4cccc5cccc3c45)CC2)cc1	8
CCCC(=O)Nc1cc(C(F)(F)F)ccc1N1CCOCC1	11
O=C1/C(=C/c2cccc3ccccc23)CCCc2ccccc21	18
CCCCNC(=S)N/N=C/c1cccc(OCC)c1O	17
Cc1nn(CC(=O)N/N=C/c2ccc3c(c2)OCO3)c(C)c1Br	17
CS(=O)(=O)N1CCCC(C(=O)Nc2ccc(F)cc2F)C1 (configuration not stated)	29
CCCN(C(=O)CSc1nnnn1C)C1CCS(=O)(=O)C1 (configuration not stated)	2
Cc1ccc(NC(=O)c2ccnc(C(C)(C)C)c2)cc1	16
O=C(O)C1C2C=CC(C3CC23)C1C(=O)O (configuration not stated)	6
O=C(c1cccc(C(F)(F)F)c1)C1CCCN(Cc2cccc(OCCO)c2)C1 (configuration not stated)	11
O=C(NC(=S)NCc1ccccc1)C1CC1	11
COc1ccc(N2C(=O)CSCC2=O)cc1OC	0
COc1cccc(C(=O)NC(=S)N2CCN(c3ccc(C(F)(F)F)cc3[N+](=O)[O-])CC2)c1	23
CCc1ccccc1NC(=S)N(Cc1cccnc1)Cc1ccco1	7
CCOc1ccc(N2C(=O)S/C(=C\c3ccc(O)c(OC)c3)C2=O)cc1	10
CC(=O)N1CCN(c2ccc(N=Cc3c(O)n(Cc4ccccc4)c(=O)[nH]c3=O)cc2)CC1	11
CCOC(=O)c1c(C(=O)OCC)c(C)n(CCc2ccc(OC)c(OC)c2)c1C	11
COc1ccc(CCCc2n[nH]c(=S)n2C)cc1C	22
Cc1ccc(-c2nnn3c2nc(NCCc2ccc(S(N)(=O)=O)cc2)c2ccccc23)cc1	9
N#Cc1c(-c2ccccc2)nc2n1CCS2	4
CCC(Sc1nc(N)c(NC(=O)c2ccc(OC)cc2)c(=O)[nH]1)C(=O)O (configuration not stated)	10
O=c1[nH]c(CN(CCc2ccccc2)S(=O)(=O)c2ccc(Cl)cc2)nc2ccccc12	0
COc1ccc2cc(C(N)=O)c(=Nc3ccccc3)oc2c1	11
CN(C(=O)CSc1nnc(NCc2ccccc2)s1)C1CCS(=O)(=O)C1 (configuration not stated)	3
COc1cc(N)c(Br)cc1C(=O)O	-18
CN(C)C1=NC(=O)/C(=C\c2ccccc2)S1	14
Cc1nc2c(C)c(C)c(C)c(C)c2nc1C	19
O=C(O)c1c(Cl)c(Cl)c(Cl)c(Cl)c1C(=O)N1CCCCCC1	20
Cc1ccc(C(=O)NC(NCC2CCCO2)C(Cl)(Cl)Cl)cc1 (configuration not stated)	9
Cc1ccc(NC(=O)c2ccc3nc[nH]c3c2)cc1C	15
O=C1Cc2ccccc2N1c1ccccc1	4
C[N+]1(CCOC(=O)C2(c3ccccc3)CCCC2)CCCCC1	17
NC(=O)NC(=O)COC(=O)c1sc2ccccc2c1Cl	12
OCCC1CN(Cc2ccc3cc(Cl)ccc3n2)CCN1Cc1ccsc1 (configuration not stated)	13
O=C(Nc1nc(-c2ccccn2)cs1)C1CCCC1	-3
COc1ccc(C(=O)NNC(=O)c2ccccc2[N+](=O)[O-])cc1Br	16
CN(C)CCOC(=O)NCC12CC3CC(CC(C3)C1)C2	15
COC(=O)CCC(=O)NS(=O)(=O)c1ccc(N=NN2CCOCC2)cc1	5
N#CCCn1cc(C=C(C#N)C#N)c(-c2ccc(-c3ccccc3)cc2)n1	17
COCc1cc(Sc2ccc(OC)cc2)nc(-c2ccccc2)n1	15
CC1CCN(S(=O)(=O)c2ccc(C(=O)Nc3nnc(-c4ccncc4)o3)cc2)CC1	16
COC(=O)Nc1ccc(S(=O)(=O)N2CCCC(C(=O)N3CCCCC3)C2)cc1 (configuration not stated)	6
Cc1cc(C(=O)NCCC2=CCCCC2)ccc1[N+](=O)[O-]	7
COC(=O)c1sc(NC(=O)c2cccc([N+](=O)[O-])c2)c(C(N)=O)c1C	10
COC(=O)c1cn(C(=O)c2ccc(C)c(C)c2)c2ccccc12	7
O=[N+]([O-])c1ccc(C[n+]2cccc3ccc4cccnc4c32)cc1	23
CCOC(=O)c1ccc(NC(=O)c2nc[nH]c2C(=O)NC)cc1	9
Cc1cc(-c2cc(C(=O)NCc3ccccc3)on2)nc(NC2CCCC2)n1	-2
Further entries.
SMILES	Biofilm kill mix
Nc1nc2c(s1)CCCCCCCCCC2	16
CCOc1ccc(NC(=O)Nc2cc(C(C)C)c(O)cc2C)cc1	5
c1csc(C(c2nnnn2C2CCCCC2)N2CCN(c3nc4ccccc4s3)CC2)c1 (configuration not stated)	14
Cc1cccc(C)c1NC(=S)N1CC(C)OC(C)C1 (configuration not stated)	5
CC(=O)c1c(C)[nH]c(C(=O)NCc2ccc(F)cc2)c1C	13
CCCN=Cc1ccc(O)cc1	12
CCCCOc1ccc(CC2CCC(=O)NC2=O)cc1 (configuration not stated)	8
COC(=O)C1=C(C)N(C(C)c2ccccc2)C(=O)/C1=C\c1ccco1 (configuration not stated)	20
COc1ccc(CNC(=O)C(c2ccco2)N(Cc2ccccc2)C(=O)Cc2cccs2)cc1 (configuration not stated)	18
Cc1ccc(NC(=O)COC(=O)[C@H](C)NC(=O)c2ccccc2)cc1S(=O)(=O)N1CCOCC1	19
COc1ccc(CNC(=O)CCS(=O)(=O)Cc2cccc(Cl)c2)c(OC)c1	12
O=C(NCc1ccc(C(F)(F)F)cc1)C1CC(c2cccc(F)c2)=NO1 (configuration not stated)	16
COc1ccc(C(=O)OCC(=O)NCc2ccc3c(c2)OCO3)cc1[N+](=O)[O-]	17
Cc1onc(-c2ccccc2Cl)c1C(=O)N1CCOC12CCN(c1cccc(F)n1)CC2	15
CSc1nc2n(n1)C(c1cccs1)C1=C(CCCC1=O)N2 (configuration not stated)	8
CN(C(=O)c1cccc(Nc2ccc(-c3ccc4c(c3)OCCO4)nn2)c1)C1CCCCC1	23
CCOC(=O)C1CCCN(C(=O)CSc2ccccc2)C1 (configuration not stated)	5
O=C(Nc1ccc(F)cc1)C(Sc1nc2ccccc2[nH]1)c1ccccc1 (configuration not stated)	13
O=C(COC(=O)c1cccnc1Cl)Nc1ccc2c(c1)OCCO2	4
COc1ccc(NS(=O)(=O)c2cnc[nH]2)cc1	7
CCCCc1c(C)nc2ccc(Br)cc2c1SC(N)N	8
COC(=O)c1ccc(CSc2n[nH]c(-c3ccccc3)n2)o1	12
COC(=O)CNC(=O)c1cc(OC)cc(OC)c1	20
CCc1cc(C(c2ccncc2)N2CCN(C)CC2)c(NC(=O)c2ccccc2)s1 (configuration not stated)	0
COC(=O)CCCNc1ncccc1[N+](=O)[O-]	4
CCN(C(=O)CN1CCN(c2cccc(C(F)(F)F)c2)CC1)c1c(N)n(Cc2ccccc2)c(=O)[nH]c1=O	9
CCc1nn(CC(=O)NCCCN(CC)CC)c(=O)c2cc3sc(C)cc3n12	15
CCn1c(SCC(=O)Nc2ncc(C(F)(F)F)cc2Cl)nnc1-c1ccccc1	13
O=C(N/N=C/c1cccc(OCC(=O)N2CCCC2)c1)C(=O)Nc1ccccc1F	4
Cc1ccc(C(NC(=O)/C=C\c2ccc3c(c2)OCO3)C(=O)Nc2ccc3c(c2)OCO3)cc1 (configuration not stated)	15

Reformatted: results already given.
molecule | Biofilm kill mix
CCCN(C(=O)CSc1nnnn1C)C1CCS(=O)(=O)C1 (configuration not stated) | 2
COC(=O)c1ccc(CSc2n[nH]c(-c3ccccc3)n2)o1 | 12

Back to the main list, repeating the 5 entries before the break.
SMILES	Biofilm kill mix
CCN(C(=O)CN1CCN(c2cccc(C(F)(F)F)c2)CC1)c1c(N)n(Cc2ccccc2)c(=O)[nH]c1=O	9
CCc1nn(CC(=O)NCCCN(CC)CC)c(=O)c2cc3sc(C)cc3n12	15
CCn1c(SCC(=O)Nc2ncc(C(F)(F)F)cc2Cl)nnc1-c1ccccc1	13
O=C(N/N=C/c1cccc(OCC(=O)N2CCCC2)c1)C(=O)Nc1ccccc1F	4
Cc1ccc(C(NC(=O)/C=C\c2ccc3c(c2)OCO3)C(=O)Nc2ccc3c(c2)OCO3)cc1 (configuration not stated)	15
COc1ccc(NC(=O)Cn2ncc(Cl)c(Cl)c2=O)cc1S(=O)(=O)N1CCOCC1	-6
COc1cccc(C(C(=O)NC2CCCC2)N(C(=O)c2ccco2)c2ccc(-n3cnnn3)c(C)c2)c1OC (configuration not stated)	0
Fc1cccc(Cn2cc(C(=S)N3CCOCC3)c3ccccc32)c1	14
Cc1ccccc1NS(=O)(=O)c1ccc(C(=O)OCC(=O)NCC(C)C)cc1	12
O=C(Cc1csc(-c2ccccc2)n1)NCc1ccc(F)cc1	18
O=C(CCN1C(=O)c2ccccc2C1=O)Nc1nc2ccccc2s1	9
Cc1ccc(/C=N/NC(=O)CNC(=O)COc2ccc(Cl)cc2)o1	19
CC(=O)Nc1ccc(NC(=O)Nc2cccc(C)c2C)cc1	22
CCCN1C/C(=C/c2ccc3c(c2)OCO3)C(=O)/C(=C/c2ccc3c(c2)OCO3)C1	5
COc1cc2nc(CN3CCOCC3)n(CC(=O)N3CCCCCC3)c(=O)c2cc1OC	16
O=C(CSc1nc2ccccc2n1S(=O)(=O)c1ccccc1)N1CCCC1	2
COc1ccccc1C(CCN(Cc1ccccc1)C(C)=O)c1ccco1 (configuration not stated)	15
O=C(O/N=C1\C(=O)N(c2ccccc2)c2ccccc21)C1CC1	22
CC(C)[C@H](NC(=O)c1ccccc1)C(=O)OCC(=O)c1ccccc1F	15
CCCC(C(=O)NCc1ccco1)N(C(=O)CNS(=O)(=O)c1ccccc1)c1ccc(OC)cc1 (configuration not stated)	4

Next part, starting with the last 3 of the part before.
SMILES	Biofilm kill mix
O=C(O/N=C1\C(=O)N(c2ccccc2)c2ccccc21)C1CC1	22
CC(C)[C@H](NC(=O)c1ccccc1)C(=O)OCC(=O)c1ccccc1F	15
CCCC(C(=O)NCc1ccco1)N(C(=O)CNS(=O)(=O)c1ccccc1)c1ccc(OC)cc1 (configuration not stated)	4
CCn1c(SCC(=O)Nc2ccc(C(=O)OC)cc2)nc2cccnc21	10
COCC(=O)Nc1nnc(COc2ccc(Cl)cc2)s1	-3
Cc1ccc(NC(=O)Nc2nnc(Cc3ccc([N+](=O)[O-])cc3)s2)cc1C	10
CCN1CCCc2cc(CN(CCN3CCOCC3)C(=S)Nc3ccc(C)cc3)ccc21	9
COCCNC(=S)N/N=C(\C)c1ccc(Cl)c(Cl)c1Cl	18
N#C/C(=C\c1c(N2CCCCCC2)nc2ccccn2c1=O)C(=O)NCc1ccco1	6
O=C(NC1CCCC1)C(c1ccccc1)N(Cc1ccco1)C(=O)Cc1cccs1 (configuration not stated)	9
O=C(CCNC(=O)c1ccccc1Cl)OCC(=O)c1ccccc1	11
CN(C)CC(C)(C)CN=Cc1c(O)[nH]c2ccccc12	20
COC(=O)c1nnn(CC(=O)NC(=O)Nc2cccc(Cl)c2C)c1C(=O)OC	-8
COc1ccc2c(c1)C=C(C(=O)OCc1cccnc1)CO2	-9
